NPYLR7 agonist = activates Aedes aegypti NPYLR7 receptor. HEK293T NPYLR7/Galpha15, GCaMP6s calcium fluorescence. activation, % at 10 µM. hit rate 0.15% among 270,000; in the data active means activation above about 40%;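 further: 0% = vehicle and 100% = reference agonist at the receptor; some compounds past the cut are filed as inactive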
NPYLR7 agonist max-min = recorded beside NPYLR7 agonist, whose call it bears; activation, %; measured here: Max-Min RFU normalised activation; some inactives read as strong as hits;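 span of the calcium signal over five minutes; 0% = vehicle and 100% = native peptide agonist; compound fluorescence can raise it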
* hit, by the source's call. Some of the compounds tested (hit frequency here may not be typical).

compound | NPYLR7 agonist | NPYLR7 agonist max-min
COc1cc(NC(=O)CCC2CCCN(C(=O)CCc3cccnc3)C2)cc(OC)c1 (stereo not drawn) | 3 | -1
O=C(O)c1cc(S(=O)(=O)Cl)ccc1F | 0 | -1
CCc1nnc(-n2nc(C)cc2C)n1N | 1 | 1
COC(=O)C1CC(O)C(N2CCN(c3cc(F)ccc3F)CC2)C1 (stereo not drawn) | 10 | 6
Cc1cc(C)n2cc(CSc3ncn[nH]3)nc2n1 | 5 | 4
Cc1ccc(-n2nc(C)c(-c3ccccc3)c2NC(=O)CN(C(=O)COc2ccc(Cl)cc2)C(C)C)cc1 | 4 | 11
COCCN1C(=O)N(CCc2ccc(OC)cc2)C2(CCN(Cc3ccsc3)CC2)C1=O | 7 | -2
COc1ccc(CC(=O)N2CC(=O)NCC(C)(C)C2)cc1 | 21 | 28
O=C1C2C3C=CC(C3)C2C(=O)N1c1ccc(Cl)c(Cl)c1 (stereo not drawn) | -3 | -3
O=C(C=Cc1ccc(Br)o1)Nc1nccs1 | -13 | -17
COc1ccc(-c2csc(-n3[nH]c(C)c(N=Nc4ccccc4O)c3=O)n2)cc1 | -3 | -2
O=C(CSc1ncnc2sccc12)N1N=C(c2cccs2)CC1c1ccco1 (stereo not drawn) | 1 | 1

Continuation:
compound | NPYLR7 agonist | NPYLR7 agonist max-min
Cn1cccc1CN1CCC1(C)C(=O)Nc1cccc(NS(C)(=O)=O)c1 (stereo not drawn) | 4 | -2
Cc1ccc(/C=C2/SC(=S)N(CN3CCOCC3)C2=O)cc1 | -2 | -5
COc1ccc2c(c1)CN(CC(O)Cn1cccn1)CC2 (stereo not drawn) | 7 | 6
COc1cc(C)ccc1OCc1nc(C(=O)N2CCN(C(C)=O)CC2)cs1 | 3 | -4
CCc1nc(CN2CCc3onc(-c4cccc5ccccc45)c3C2)c(C)[nH]1 | -4 | -6
O=c1[nH]c2ccccc2n1CCc1nc(-c2cccnc2)no1 | 19 | 6
COc1ccc(C2SCCN2C(C)=O)cc1OCc1ccccc1 (stereo not drawn) | 17 | 18
CS(=O)(=O)N1CCC(CNC(=O)C(=O)Nc2ccc(OC(F)(F)F)cc2)CC1 | -3 | -4
COC(=O)c1ccc(CSc2ccc3nnc(-c4ccccc4)n3n2)o1 | 4 | 27
O=C(Nc1cccnc1)c1ccc(-c2ccc3c(c2)OCCO3)o1 | -3 | -5
COc1ccc(/C=C2\C=C(c3ccccc3)N(c3ccc(N(C)C)cc3)C2=O)cc1Br | 0 | 5
CCOC(=O)c1c[nH]c2c(OC)cccc2c1=O | -3 | -7

The list continues.
compound | NPYLR7 agonist | NPYLR7 agonist max-min
CCOc1ccc(NC(=O)N2CCc3cc(OC)c(OC)cc3C2CNC(=O)c2cccc(OC)c2)cc1 (stereo not drawn) | 6 | 6
COc1ccc(C(=O)NCC2c3cc(OC)c(OC)cc3CCN2Cc2ccccc2F)cc1 (stereo not drawn) | 5 | 15
CCOc1cc(C2C3=C(CCCC3=O)OC(=N)C2C#N)ccc1O (stereo not drawn) | 2 | -3
O=C1CCCC2=C1C(c1cccnc1)C1C(=O)CCCC1=N2 (stereo not drawn) | -3 | -6
CC(=O)Oc1ccc(/C=C2N=C(/C=C/c3cccc(Cl)c3Cl)OC\2=O)cc1 | -5 | -9
O=C(C1CCCN1c1nc(Cc2ccc(Cl)cc2)ns1)N1CCN(c2cccc(Cl)c2)CC1 (stereo not drawn) | 20 | 20
CC(=O)Oc1cccc(C(=O)Nc2cccc(C(=O)Nc3nccs3)c2)c1 | -7 | -14
Nc1ccc(S(=O)(=O)Nc2ccc(Cl)cc2)cc1N | 4 | 3
CC(C)CN1CCC(CNC(=O)c2ccc(N3CCOC(C)(C)C3)nc2)C1 (stereo not drawn) | 27 | 16
Cc1nc(NCCS(=O)(=O)NCC2CCC2)nc(N(C)C)n1 | -4 | -9
Cc1ccc(C2=NNC(=NCc3ccc4c(c3)OCO4)SC2)s1 | 7 | 5
c1ccc2c(c1)oc1cc(-n3ncnn3)ccc12 | 2 | 4

Carrying on:
compound | NPYLR7 agonist | NPYLR7 agonist max-min
c1ncn(-c2ccc(CN(Cc3ccsc3)CC3CCCO3)cc2)n1 (stereo not drawn) | -1 | -6
COC(=O)c1ccc(NC(=O)COc2coc(CN3CCc4ccccc43)cc2=O)cc1 | 1 | -2
COc1ccc(-c2cnc3ncnn3c2N2CCN(C(=O)c3c(F)cc(F)cc3F)CC2)cc1 | 22 | 12
CC(C)c1nc(CC(=O)NC(CC(=O)O)c2ccccc2Cl)cs1 (stereo not drawn) | 2 | -5
CCOC(=O)Cc1csc2nc3sc4c(c3c(=O)n12)CCCC4 | 6 | 4
c1ccc(COc2ccc(OCCCn3cnc4ccccc43)cc2)cc1 | -5 | 6
C=CCNC(=O)CSc1n[nH]c(C)c1[N+](=O)[O-] | 5 | 1
Cc1cc(C)cc(N2CCCn3c2nc2c3c(=O)n(CCC(C)C)c(=O)n2C)c1 | -5 | -8
Cc1c(C(=O)NCC(C)C)sc(=O)n1Cc1ccc(F)cc1 | 5 | 1
CC(C)CNC(=O)CCCn1nc(-c2ccc(F)cc2)ccc1=O | 0 | 2
CCCCCOC(=O)Nc1nc(=O)n(C2O[C@H](C)[C@@H](O)[C@H]2O)cc1F (stereo partly drawn) | -3 | 5
O=C(Nc1cccc(-c2ccc(N3CCOCC3)nn2)c1)c1ccco1 | -5 | -7

Continuation:
compound | NPYLR7 agonist | NPYLR7 agonist max-min
CNC(=O)c1ccc(OCC(=O)c2cnc(N3CCCCC3)s2)cc1 | 1 | -10
CCn1c(C2CCCN(C(=O)c3cnc(OC)nc3)C2)nn(C)c1=O (stereo not drawn) | 13 | 7
Cc1cccc(C(O)(C(=O)NN2CCCCC2)c2cccc(C)c2)c1 | 0 | -1
CC(OC(=O)c1cccn1C)C(=O)Nc1cccc(N2CCCC2=O)c1 (stereo not drawn) | 6 | 2
CCOC(=O)C1CCN(S(=O)(=O)c2ccc(C)c([N+](=O)[O-])c2)CC1 | 9 | 6
CSc1nc(NS(=O)(=O)c2cc(Br)ccc2Br)cc(=O)[nH]1 | -6 | -7
Cc1c(C(=O)NCc2ccc(-n3cncn3)nc2)[nH]c2c1C(=O)CCC2 | 7 | 5
CC(C)CCC1(C)NC(=O)N(CC(=O)c2ccc[nH]2)C1=O (stereo not drawn) | 1 | -1
Cc1sc(-n2cccc2)c(C(=O)O)c1C | 6 | 9
Cc1nc2ccc(Cl)cn2c1CN(C)CC1CC(=O)N(C2CCCC2)C1 (stereo not drawn) | -6 | -7
C=c1ccc(S(=O)(=O)NC(C)(C)C)cc1=c1nnc2n1NC(C)=c1ccccc1=2 | -3 | 2
Cc1ncc(CN2CCCC(CCNC(=O)c3cncs3)C2)[nH]1 (stereo not drawn) | 22 | 10

Remaining list, next part.
compound | NPYLR7 agonist | NPYLR7 agonist max-min
CCCCNC(=O)C1(C)CCCCN1C(=O)c1cc2ccccc2s1 (stereo not drawn) | 0 | 0
CCN(Cc1nccn1Cc1c(C)cc(C)cc1C)C(=O)c1ccc(C)cc1 | 14 | 24
C=CCn1c(-c2cc(OC)cc(OC)c2)n[nH]c1=S | 3 | 13
CCC1CN(C(=O)c2ccc(Cl)c(Cl)c2O)CCO1 (stereo not drawn) | 6 | 1
O=C(CCN1CCCO1)NCc1ccc2[nH]c3c(c2c1)CCCCC3 | 17 | 7
O=C(c1ccoc1)N1CCCC(C(=O)N(Cc2ccc(C(F)(F)F)cc2)C2CC2)C1 (stereo not drawn) | -3 | -4
Cc1c(CN(C)c2cc(OC(C)C)nc(N)n2)cnn1C | 1 | 47
CSCc1ccc(C(=O)N2CCC3(CCCN(C)C3=O)C2)o1 (stereo not drawn) | 18 | 10
COc1cccc(OCC(=O)Oc2coc(CSc3nc(C)cc(C)n3)cc2=O)c1 | -17 | -15
CCCCn1c(=O)c2c(nc3n2CC(C)=NN3CCC)n(C)c1=O | 7 | 9
O=C(c1ccco1)N1CCN(C2CC(=O)N(CCc3ccccc3)C2=O)CC1 (stereo not drawn) | -6 | -5
N#Cc1ccc(C(=O)N2CCCC3(CCc4ccccc43)C2)cc1 (stereo not drawn) | -3 | 5

Carrying on:
compound | NPYLR7 agonist | NPYLR7 agonist max-min
CCn1cc(CN2CCCC(C(=O)Nc3ccc(-c4nc5ccccc5[nH]4)cc3)C2)c(C)n1 (stereo not drawn) | 10 | 5
N#Cc1cnn(Cc2ccccc2)c1NC(=O)c1cccc(C(F)(F)F)c1 | 2 | -1
C=CCOc1ccc(-c2nc3s/c(=C\C4=Cc5ccccc5OC4)c(=O)n3n2)cc1 | 4 | 3
COc1ccc2c(c1)-c1sc(C(=O)NCc3c(F)cccc3Cl)cc1CC2 | 5 | 2
Cc1nc(CNC(=O)c2ccc(C(C)(C)C)cc2)n[nH]1 | 9 | 8
Cc1ccc(F)cc1S(=O)(=O)N1CCOC(Cc2ccccc2)C1 (stereo not drawn) | 4 | 2
C[C@H](NC(=O)OCc1ccccc1)C(=O)N1CCCCC1c1cccnc1 (stereo partly drawn) | -7 | -13
COCC(=O)N1CCN(C(c2ccccc2)c2ccc(F)cc2)CC1 (stereo not drawn) | -6 | 2
CC(Cc1ccsc1)Nc1ncnc2sccc12 (stereo not drawn) | -5 | -6
COCCN(Cc1nccn1Cc1ccc(OC)cc1)C(=O)c1cccs1 | 12 | 14
CCCOc1ccccc1C(=O)N1CCC2(CCNC(=O)CC2)CC1 | 7 | 6
Cn1cnnc1SCc1cc(=O)c(OCC(=O)NCc2ccco2)co1 | 10 | 6

Additional records.
compound | NPYLR7 agonist | NPYLR7 agonist max-min
COc1cccc(CN(Cc2cccc(C(F)(F)F)c2)Cc2nc(C(=O)O)co2)c1OC | 12 | 16
CCC(NC(=O)C1CCCO1)c1ccccc1OC(C)C (stereo not drawn) | 5 | 1
COc1ccccc1C(NC(=O)C1CCN(CCn2cnc3c2c(=O)n(C)c(=O)n3C)CC1)c1ccccn1 (stereo not drawn) | 4 | 3
O=C(O)c1coc(CN(Cc2ccccc2)Cc2ccc(Cl)cc2)n1 | 4 | 2
O=C(C=Cc1nc2ccccc2o1)N1CCCC1c1nc2ccccc2s1 (stereo not drawn) | 1 | -1
O=C(CSc1cc(N2CCCCC2)ncn1)NCc1ccco1 | 1 | 1
CC(c1ccc2c(c1)OCCO2)N(C)C(=O)c1cn(-c2ccccc2)nn1 (stereo not drawn) | 18 | 14
CCC(CC)C(=O)NCCN1CCn2cc(OCc3ccc(F)cc3)c(=O)cc2C1=O | 12 | 5
COc1ncccc1-c1cnc2n[nH]nc2c1 | 8 | -3
Cc1cc2c(cc1O)NC(=O)CC2c1nc(-c2ccc(Cl)cc2)no1 (stereo not drawn) | -8 | -10
O=C(CC1CC2CCC1C2)NNC(=O)c1ccccc1 (stereo not drawn) | 14 | 4
Cn1ncc(C(N)=O)c1NC(=S)NC(=O)c1ccc(Br)o1 | -5 | -8

Remaining list, next part:
compound | NPYLR7 agonist | NPYLR7 agonist max-min
Cc1cc(C)n(Cc2cc(C(=O)N3C[C@H]4CC[C@H]3C4)n[nH]2)n1 | 3 | 5
Cc1sc(C(=O)N2CCN(c3cccc4[nH]ccc34)CC2)c(-n2c(C)ccc2C)c1C | -5 | -13
COc1cc(-c2nnc(CSc3nc4ccccc4o3)o2)cc(OC)c1OC | 7 | 12
CC1(C)S[C@@H]2[C@H](NC(=O)[C@@H](N)c3ccc(O)cc3)C(=O)N2[C@H]1C(=O)O | -9 | -16
O=C(c1cc2ccccc2c(=O)o1)N1CCN(c2ccc([N+](=O)[O-])cc2)CC1 | -4 | -6
COCCN1C(=O)c2ccccc2NC1c1cccc(Cl)c1 (stereo not drawn) | -19 | -18
O=C(NC1CC(=O)N(C2Cc3ccccc3C2)C1)c1n[nH]c2ccccc12 (stereo not drawn) | 3 | 4
Cc1ccc(NC(=O)C2CCCN(C(=O)C3Cc4ccccc4O3)C2)nc1 (stereo not drawn) | -24 | -20
COc1ccc(CN(Cc2cccc(C)c2)C(=O)C2CCOCC2)cc1 | -7 | -14
Cc1ccccc1-c1nn[nH]n1 | -10 | -14
O=C(NCc1ccc2c(c1)OCO2)c1cccnc1N1CCN(C(=O)NCCCc2ccccc2)CC1 | 3 | -2
CN(CC(=O)NNC(=O)Cc1c[nH]c2ccccc12)S(=O)(=O)c1ccc(Cl)cc1 | 1 | -1

Additional entries:
compound | NPYLR7 agonist | NPYLR7 agonist max-min
Cc1cc(NC(=O)c2cc(C(C)C)on2)no1 | -3 | -1
Cc1ccc2oc([C@H]3CCN(Cc4ncc[nH]4)C3)nc2c1 | -7 | -13
Cc1cc(C(=O)N2CCN(Cc3nnnn3-c3ccccc3)CC2)no1 | -5 | -5
CC(=O)OC(C)(C)C(=O)N1CCC(n2c(=O)oc3cc(C)ccc32)CC1 | 5 | 3
O=C(C1CCCC1)N1CCCC(OCc2ccc(F)cc2)C1 (stereo not drawn) | 6 | 2
CNS(=O)(=O)CC1CCCN1c1ccccn1 (stereo not drawn) | 2 | -5
Cc1cccc(Nc2ncccc2C(=O)NCc2ccccn2)c1C | -5 | -6
O=c1cc(CO)oc(CN2CCOCC2)c1O | 4 | 1
O=C(Cn1nc2ccccc2n1)N1CCCC(Nc2ccccc2)C1 (stereo not drawn) | 4 | 1
CC(C(=O)OCC(=O)c1cccc([N+](=O)[O-])c1)N1C(=O)C2C3C=CC(C3)C2C1=O (stereo not drawn) | 27 | 10
